High-throughput results from PubChem.
Bead autofluor = flagged as autofluorescent in microsphere protease counterscreen; fluorescence intensity (test concentration not listed); compound autofluorescence counterscreen, microsphere flow cytometry; stronger effect = higher value; AID 624483; 360,000 compounds, 3.1% hits;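 active = at least 3 SD above the mean of all compounds, about 16000 in these data; inconclusive = too few beads counted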;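 also: 100 nL of 1 mM stock went into each well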
ugtP null kill = growth inhibition of S. aureus ugtP deletion strain; growth inhibition, % (no concentration beside the values); S. aureus RN4220 ugtP deletion, OD600 growth, 16 h; some inactives read as strong as hits; 330,000 compounds, 0.54% hits;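 active = z-score under -3 and OD600 up to 0.15 on both plates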;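 also: plate controls were untreated wells for no effect and antibiotic for full effect; wells of about 80 µL received 100 nL stock; the first replicate is given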
BJeLR lethal = BJeLR cell viability loss | BJeLR (HRASV12) viability, CellTiter-Glo ATP luminescence, 48 h; reference of the scale not given here | inhibition, % (test concentration not listed) | 300,000 compounds, 0.17% hits;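 active = replicate mean above 50%; inconclusive = above 50% but judged a plate artefact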;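 also: 50 nL library stock added to about 25 µL; numbers are from one replicate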
RN4220 kill = kills Staphylococcus aureus RN4220. S. aureus RN4220 growth, OD600, 16 h. inhibition, % (concentration not given with the values). 330,000 compounds, 0.33% hits;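 active = z-score of -3 or lower and OD600 up to 0.18 on both plates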;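 also: plate controls were untreated cells for no effect and reference antibiotic for full effect; stock transfer was 100 nL into about 80 µL; one replicate is shown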
PrP UTR inh = inhibition of PrP 5' UTR reporter expression; inhibition, % (no concentration beside the values); 340,000 compounds, 0.35% hits; cell-based PrP 5' UTR mRNA reporter, plate reader; AID 488862;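 active = every replicate at 50% or more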;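 also: 0 = median of the neutral control wells; tested in H4 reporter cells; numbers are from one replicate; inactives centre near -14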
Mtb hypoxia rep = inhibitors of hypoxia-regulated fluorescent reporter in Mycobacterium tuberculosis | M. tuberculosis hypoxia-regulated fluorescent reporter, fluorescence | fluorescence inhibition, % (test concentration not listed) | 300,000 compounds, 0.1% hits | AID 1159583;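 active = 35 to 45% if threefold the growth effect, above 45% if 1.5-fold the growth effect; inactive = the rest, general growth blockers included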;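 also: wells of about 50 µL received 100 nL stock; 0% = vehicle wells and 100% = reference inhibitor wells; whole bacteria with a GFP reporter of the hypoxia response; strong numbers were not always called active; many hits fall short of the cut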
Mtb hypoxia rep growth = also measured in Mtb hypoxia rep; calls as there; growth inhibition, %; measured here: M. tuberculosis growth (absorbance);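 0% = vehicle and 100% = reference antibiotic; read after six days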
Active calls of the source: *; u = inconclusive; x = not tested or not shown; & = joins results of further samples. No enrichment for hits; about 4% have a hit in one of these screens.

SMILES | Bead autofluor | ugtP null kill | BJeLR lethal | RN4220 kill | PrP UTR inh | Mtb hypoxia rep | Mtb hypoxia rep growth
O=C(COC(=O)c1ccc(Cl)c(S(=O)(=O)N2CCOCC2)c1)NCc1ccco1 | u | 5 | 1 | 1.5 | -2 | 6 | 10
CCOC(=O)C1CCN(C(=O)CN(c2ccc3c(c2)OCCO3)S(C)(=O)=O)CC1 | 22882* | -3 | -10 | 7.2 | -19 | 14 | 1
Cc1ccc2oc(C(=O)Nc3ccc(S(=O)(=O)Nc4ncccn4)cc3)c(C)c2c1 | 5863 | -10 | -3 | -5.8 | -11 | 8 | 22
CC1CCCN(C(=O)c2cc3ccccc3cc2O)C1 (configuration not stated) | 7954 | -3 | 0 | 3.1 | -11 | 19 | 7
COc1cc(OC)c(/C=N/NC(=O)c2ccncc2)cc1Br | 5158 | x | -5 | x | -25 | x | x
CC1(C)Cc2[nH]c(=S)c(C#N)cc2CO1 | 3599 | 3 | 0 | 1.0 | 34 | x | x
CCOc1ccc(CC(=O)Nc2c(C(=O)Nc3ccccc3)oc3ccccc23)cc1OCC | 3189 | 12 | -5 | 6.2 | -19 | 7 | 4
Cc1ccc(S(=O)(=O)NC(=NC(C)C(=O)O)c2ccccc2)cc1 (configuration not stated) | 2883 | -6 | 9 | 5.5 | -57 | 13 | 13
Cc1oc2cc(O)ccc2c(=O)c1-c1cnn(-c2ccccc2)c1 | 2708 | -9 | 3 | 6.1 | -32 | x | x
COc1cc2c(cc1Cl)C(=O)C(F)(c1ccccc1)C(=O)N2 (configuration not stated) | 5909 | -10 | -4 | 1.7 | -39 | 7 | 13
Cc1ccc2c(c1C)NC(C)CC2C (configuration not stated) | 2980 | 4 | 7 | 3.2 | -24 | x | x
O=C(O/N=C1\CCCc2ccccc21)c1ccc(F)cc1 | 10224 | x | -2 | x | -28 | x | x
CCOc1ccc(NS(=O)(=O)c2ccc3[nH]cc(C(=O)NCCOC)c(=O)c3c2)cc1 | 4797 | 4 | -4 | 3.9 | -6 | 2 | 14
O=C(CSc1nc2[nH]ncc2c(=O)n1-c1ccccc1Br)NCc1ccco1 | 7721 | 3 | 4 | 3.8 | -24 | 10 | -1
CC(=O)Nc1cccc(C(=O)OCC(=O)Nc2ccc(Cl)cn2)c1 | 5453 | 4 | -3 | 7.1 | -14 | -2 | 11
Cn1c(=O)c2ccccc2n(CC(=O)NC2CCCCC2)c1=O | 4011 | 12 | 1 | -0.5 | -13 | -1 | -12
COc1cc(C=NNC(=O)Nc2cccc3nsnc23)cc(OC)c1OC | x | -20 | x | -5.8 | x | 11 | 4
Clc1ccccc1C(c1nnnn1Cc1ccco1)N1CCN(Cc2ccco2)CC1 (configuration not stated) | 3875 | -8 | 4 | -1.6 | -20 | x | x
O=[N+]([O-])c1cc(C(F)(F)F)ccc1NC1CCN(Cc2ccccc2)C1 (configuration not stated) | 5855 | 15 | -1 | -1.8 | 2 | -4 | -1
Cc1cc2c(=O)oc(-c3ccccc3Br)nc2s1 | 6364 | 2 | 0 | 3.7 | -12 | -1 | 11
CC1=NN(c2nc3ccccc3s2)C(O)(C(F)(F)F)C1 (configuration not stated) | 3937 | -1 | 3 | 6.6 | -13 | -2 | 9
COC(=O)[C@@]1(C)[C@H]2C(=O)N(Cc3ccccc3)C(=O)[C@H]2[C@H]2CN=C(SCc3ccc(Cl)cc3)N21 | 3739 | -10 | x | 6.2 | -9 | -2 | 2
CCSc1nnc(NC(=O)CC(C)C)s1 | 4364 | -3 | 0 | -0.5 | -102 | -8 | 12
CN(CC(=O)N(CCO)Cc1ccccc1)S(=O)(=O)c1ccc2c(c1)c(=O)n(C)c(=O)n2C | 4156 | 11 | 8 | 4.5 | -19 | 6 | 0
CCn1c(C2CCN(Cc3ccccc3)CC2)n[nH]c1=S | 3292 | 0 | 1 | 1.6 | -17 | 0 | -1
O=C(NC1CCCCC1)c1cc2cc(Br)ccc2o1 | 3877 | 7 | 0 | 3.2 | -52 | x | x
NS(=O)(=O)c1ccc(CNC(=S)NC2CCCCC2)cc1 | 5198 | 6 | -5 | 1.6 | -28 | 6 | -4
C[C@H](CO)N1C[C@H](C)[C@@H](CN(C)C(=O)Nc2ccccc2)Oc2ccc(NS(=O)(=O)c3ccc(F)cc3)cc2C1=O | 4166 | 2 | x | -11 | -25 | 11 | 7
CN(CCOc1ccccc1)C(=O)C1CCC(=O)N(CCCN2CCCC2=O)C1 (configuration not stated) | 5719 | 3 | 1 | 1.9 | -1 | 7 | 8
COc1ccc(NC(=O)c2cnc(SC)nc2)cc1 | x | 7 | 18 | -2.9 | -6 | 8 | 1

Reprinted from the part before: six compounds, then new ones.
SMILES | Bead autofluor | ugtP null kill | BJeLR lethal | RN4220 kill | PrP UTR inh | Mtb hypoxia rep | Mtb hypoxia rep growth
CCn1c(C2CCN(Cc3ccccc3)CC2)n[nH]c1=S | 3292 | 0 | 1 | 1.6 | -17 | 0 | -1
O=C(NC1CCCCC1)c1cc2cc(Br)ccc2o1 | 3877 | 7 | 0 | 3.2 | -52 | x | x
NS(=O)(=O)c1ccc(CNC(=S)NC2CCCCC2)cc1 | 5198 | 6 | -5 | 1.6 | -28 | 6 | -4
C[C@H](CO)N1C[C@H](C)[C@@H](CN(C)C(=O)Nc2ccccc2)Oc2ccc(NS(=O)(=O)c3ccc(F)cc3)cc2C1=O | 4166 | 2 | x | -11 | -25 | 11 | 7
CN(CCOc1ccccc1)C(=O)C1CCC(=O)N(CCCN2CCCC2=O)C1 (configuration not stated) | 5719 | 3 | 1 | 1.9 | -1 | 7 | 8
COc1ccc(NC(=O)c2cnc(SC)nc2)cc1 | x | 7 | 18 | -2.9 | -6 | 8 | 1
NC(=O)CC(NC(=O)Cc1ccc(Br)cc1)c1ccc(N2CCC(Cc3ccccc3)CC2)c([N+](=O)[O-])c1 (configuration not stated) | 3006 | x | -7 | x | -12 | x | x
Cc1ncsc1CCC(=O)N1CCCC(C(=O)c2cccc(Cl)c2)C1 (configuration not stated) | 2309 | 2 | 2 | 0.4 | -22 | 0 | 0
COC(=O)C1C(=O)NCC1c1ccc(C)cc1 (configuration not stated) | 15913 | 7 | 7 | 3.7 | 0 | 15 | -5
CCCn1c(Sc2nnnn2-c2ccccc2)n[nH]c1=O | 9335 | -1 | 3 | 2.5 | -23 | 10 | 14
COc1cccc(Nc2ccc(C(=O)O)cc2N)c1 | 3600 | -5 | 1 | -2.7 | -24 | 8 | -3
COc1ccccc1/C=C/CN1CCC(CO)(Cc2ccccc2)CC1 | 3561 | -1 | 1 | 0.0 | -3 | 0 | 6
COc1ccc(S(=O)(=O)NCc2ccccn2)cc1NC(=O)c1ccccc1F | 5503 | -1 | 18 | -0.5 | -44 | 7 | 2
CN(C)S(=O)(=O)c1ccc(C(=O)N2CCN(S(=O)(=O)c3cccs3)CC2)cc1 | 4076 | -4 | 1 | -2.4 | -17 | -1 | -2
CC(=O)NC(C)c1cc(Cl)c2cccnc2c1O (configuration not stated) | 2691 | 27 | x | 8.7 | -13 | 3 | -8
COc1ccc(NC(=O)Nc2ccc(N3CCCC3=O)cc2)cc1OC | 12129 | -1 | -5 | 5.1 | -9 | 17 | 11
CC(=O)Nc1ccc2nc(NC(=O)c3cccs3)sc2c1 | 4465 | 4 | 14 | 1.1 | -64 | 23 | 3
C/C(=N\NC(=O)Cc1ccc(Cl)cc1)c1ccccn1 | 10415 | x | -2 | x | 28 | x | x
CSc1cccc(NC(=O)CCn2c(=O)c3cccn3c3cccnc32)c1 | 5654 | 9 | 1 | 3.2 | -2 | -5 | -2
Cc1c(Cl)cn2c(=O)cc(CN3CCN(c4ccccc4)CC3)nc2c1Cl | 4223 | 1 | 9 | -0.7 | -22 | 0 | 5
O=c1c(-c2ccc(F)cc2)coc2cc(O)ccc12 | 11544 | 9 | 17 | 4.9 | -76 | 8 | 2

2 successive compounds out of the list so far, for reference:
SMILES | Bead autofluor | ugtP null kill | BJeLR lethal | RN4220 kill | PrP UTR inh | Mtb hypoxia rep | Mtb hypoxia rep growth
NC(=O)CC(NC(=O)Cc1ccc(Br)cc1)c1ccc(N2CCC(Cc3ccccc3)CC2)c([N+](=O)[O-])c1 (configuration not stated) | 3006 | x | -7 | x | -12 | x | x
Cc1ncsc1CCC(=O)N1CCCC(C(=O)c2cccc(Cl)c2)C1 (configuration not stated) | 2309 | 2 | 2 | 0.4 | -22 | 0 | 0

(list continues)
SMILES | Bead autofluor | ugtP null kill | BJeLR lethal | RN4220 kill | PrP UTR inh | Mtb hypoxia rep | Mtb hypoxia rep growth
COc1cc(N)c2ncccc2c1Cl | 3162 | 11 | x | 5.2 | -26 | 7 | 5
CCC(=O)N1COC[C@@H]1Cc1ccccc1 | 12000 | 3 | 7 | 3.6 | -6 | 5 | 12
COc1ccc(/C=C/C(=O)NC(=S)Nc2ccc(Br)cn2)cc1 | 2907 | 13 | -4 | -6.3 | -28 | 3 | 5
COc1ccc(CC(C)Nc2ccccc2F)cc1 (configuration not stated) | x | 11 | 0 | 4.9 | 2 | -1 | -4
CCOC(=O)c1c(C)oc2c1c(CN1CCN(CCO)CC1)c(O)c1ccccc12 | 3277 | 17 | x | 2.9 | -171 | 4 | -3
CC(/C=N/NC(=O)CCn1nnc2ccccc21)=C\c1ccccc1 | 2591 | x | -5 | x | -6 | x | x
CC(=NNC(=O)COc1ccccc1F)c1cc2ccccc2o1 | x | -1 | x | 9.8 | x | 18 | 4
CC(=NNC(=O)Cc1ccc(Cl)cc1)c1ccc(F)cc1 | x | 11 | x | 1.6 | x | 3 | 4
Cc1nn(CCCNC(=O)C2CCCO2)cc1Br (configuration not stated) | 11769 | 3 | -7 | 1.7 | -13 | 6 | -2
O=C(NCCSCc1ccc(Cl)cc1Cl)c1ccc(CN2CCOCC2)cc1 | 3479 | 4 | 6 | -3.6 | -11 | x | x
CC(C)Cc1cc(C(=O)Nc2sc3c(c2C#N)CCCC3)no1 | 5259 | -14 | -13 | -8.1 | -23 | 3 | 10
COc1ccc(S(=O)(=O)N2CC3CCCN3c3ccc(C(F)(F)F)cc32)cc1 (configuration not stated) | 3450 | 11 | 6 | -1.0 | -10 | 14 | 7
Cc1ccc(CNC(=O)CSc2ncccn2)cc1 | 4862 | 2 | 7 | 1.0 | -29 | x | x
Clc1ccc(Nc2ncnc3ccc(Br)cc23)cc1 | 7348 | -35 | 6 | -1.5 | -7 | -4 | -11
CCCN1C(=O)/C(=C/c2ccc(C)o2)NC1=S | x | -1 | 2 | 0.3 | x | 12 | 10
CN(C)CCNC(=O)c1cc2ccccc2oc1=O | 3594 | -3 | -5 | 7.2 | -12 | x | x
CCOC(=O)C1CC2=C(CCCC2=O)NC1=O (configuration not stated) | 3556 | -2 | x | 3.6 | -1 | -2 | 4
NC(c1ccccc1)c1cccnc1 (configuration not stated) | 3788 | x | -7 | x | -17 | x | x
COc1ccc(OC)c(Nc2ncnc3c2cnn3-c2ccccc2)c1 | 9133 | 10 | 3 | -4.5 | -27 | 19 | 4
COc1ccc(CCn2c(-c3ccncc3)n[nH]c2=S)cc1OC | 3914 | 6 | -1 | 3.2 | -10 | 12 | 3
Fc1ccc([C@@H]2CCNC[C@H]2COc2ccc3c(c2)OCO3)cc1 | 5609&4433&5395 | x | 19&9 | x | -25&-3&-33 | x | x
COc1ccc(S(=O)(=O)N2CCCCC2)cc1NC(=O)CNc1ccc(F)cc1C | 3395 | 0 | x | 6.4 | -13 | 13 | 6
COc1ccccc1C(=O)Nc1nc2cc3c(cc2s1)OCCO3 | 5572 | 38 | 7 | -6.7 | -108 | -2 | 1
O=C(c1cccnc1)c1cc2ccccc2[nH]1 | 8780 | -10 | -1 | 9.2 | -22 | 9 | 6
COc1ccc(-c2nnc(SCCc3ccccc3)n2N)cc1 | 3620 | -1 | 0 | -4.6 | -19 | x | x
CCN(CCNC(=O)CN1CCN(Cc2ccc(Cl)cc2)C1=O)c1ccccc1 | 2762 | 10 | -2 | -3.5 | -4 | x | x

Part of the list above, tab-delimited.
Molecule	Bead autofluor	ugtP null kill	BJeLR lethal	RN4220 kill	PrP UTR inh	Mtb hypoxia rep	Mtb hypoxia rep growth
COc1ccc(CCn2c(-c3ccncc3)n[nH]c2=S)cc1OC	3914	6	-1	3.2	-10	12	3
Fc1ccc([C@@H]2CCNC[C@H]2COc2ccc3c(c2)OCO3)cc1	5609&4433&5395	x	19&9	x	-25&-3&-33	x	x
COc1ccc(S(=O)(=O)N2CCCCC2)cc1NC(=O)CNc1ccc(F)cc1C	3395	0	x	6.4	-13	13	6
COc1ccccc1C(=O)Nc1nc2cc3c(cc2s1)OCCO3	5572	38	7	-6.7	-108	-2	1
